# Screening data as filed in PubChem BioAssay.
# RE007 growth inh = less growth of the S. pombe RE007 Vpr strain; S. pombe RE007 Vpr strain, BacTiter-Glo ATP luminescence, 24 h; control for the full effect not named in the record; Potency, µM (top dose mostly 92.2 µM), without a hit: top-dose activity change, negative = less growth; 0.21% of 360,000 active; active = well fitted falling curve with a large enough effect; inconclusive = small, poorly fitted or top-dose-only effect; inactive = no such curve, though single readings can be large or run the other way;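 further: on the % scale 0 is the no-effect control and ±100 the full control effect; nearly all actives have a fitted effect of over 50% in size; the assay follows cell death caused by Vpr and the record does not say whether a fall means rescue or toxicity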
#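 Fission yeast strain RE007, carrying one chromosomally integrated HIV-1 vpr copy, was seeded at OD 0.01 in PMG+AL medium with 23 nL pinned compound. After 24 h at 30 °C and 99% humidity, viability was read by BacTiter-Glo luminescence.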
# Cruzain noTriton = blocks cruzain activity in detergent-free assay; 2.3% of 200,000 active; purified cruzain, Z-FR-AMC fluorescence, no detergent; P25779; Potency, µM, for inactives: max response, negative = inhibition, hits mostly inhibitors; active means well fitted curve in the direction sought with a large enough effect; inconclusive means small, poorly fitted or top-dose-only effect, or another doubt; inactive means no such curve, though single readings can be large; an effect the other way counts as inactive or inconclusive;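 further: plate controls were enzyme without inhibitor for no effect and buffer without enzyme for full effect; nearly all actives have a fitted effect of over 40% in size; top concentration of the series not given in the record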
# Target sequence (P25779 123-467 limits assumed): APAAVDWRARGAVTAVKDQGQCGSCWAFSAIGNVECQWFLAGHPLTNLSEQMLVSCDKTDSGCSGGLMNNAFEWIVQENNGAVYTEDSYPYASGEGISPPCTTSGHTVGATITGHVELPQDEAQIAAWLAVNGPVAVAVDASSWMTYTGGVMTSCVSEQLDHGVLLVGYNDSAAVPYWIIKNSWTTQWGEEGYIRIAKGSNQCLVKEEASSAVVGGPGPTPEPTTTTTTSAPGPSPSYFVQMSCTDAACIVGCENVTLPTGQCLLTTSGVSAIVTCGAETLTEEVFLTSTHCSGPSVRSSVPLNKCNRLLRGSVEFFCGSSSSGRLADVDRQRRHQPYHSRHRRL
#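 Purified cruzain at 1.5 nM, pre-incubated 15 min with compound at room temperature in 100 mM sodium acetate pH 5.5, 5 mM DTT, 0.00005% Triton X-100. Reaction started with 2 uM Z-FR-AMC; AMC fluorescence increase over 60 s gives rate.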
# MARV entry inh = Marburg virus entry inhibition; AID 540276; Marburg virus pseudotyped entry inhibition, cell reporter; control for the full effect not named in the record; about a third of the inactives were read at about 46 µM; Potency, µM (top dose mostly 37.8 µM), for the others: top-dose activity change, negative = inhibition, actives largely listed as inhibitors; 1.8% of 300,000 active; active = well fitted inhibition curve with a large enough effect; inconclusive = small, poorly fitted or top-dose-only effect, or effect the other way; inactive = flat fitted curve, though single readings scatter; tested in HEK293 cells; about a fifth of its hits are not listed in these tables; further: on the % scale 0 is the no-effect control and ±100 the full control effect; luciferase read-out
# Lassa entry inh = Lassa virus entry inhibition; Lassa virus pseudotype entry inhibition, cell reporter; control for the full effect not named in the record; Potency, µM (highest dose often 37.9 µM), for the others: top-dose activity change, negative = inhibition, actives largely listed as inhibitors; 1.2% of 300,000 active; AID 540256; active means well fitted inhibition curve with a large enough effect; inconclusive means small, poorly fitted or top-dose-only effect, or effect the other way; inactive means flat fitted curve, though single readings scatter; tested in HEK293 cells; further: on the % scale 0 is the no-effect control and ±100 the full control effect; nearly all actives have a fitted effect of over 50% in size; luciferase read-out
# SARS PLpro yeast = blocks SARS-CoV papain-like protease in a yeast assay. S. cerevisiae expressing SARS-CoV PLpro, growth rescue; control for the full effect not named in the record. Potency, µM (highest dose often 32.9 µM), inactives show at the highest dose activity, positive = growth rescue. 0.19% of 330,000 active. AID 485353; further: 0% is about no effect; nearly all actives have a fitted effect of over 55% in size; growth read by luminescence after 48 h
# 2A StopGo = lowers the luciferase signal of an FMDV 2A StopGo reporter. Potency, µM (titrated, usually from 57.9 µM), inactives show at the top dose signal change, negative = less light. human cells with a luciferase reporter of 2A StopGo recoding; control for the full effect not named in the record. 1.2% of 410,000 active; active = well fitted falling curve with a large enough effect; inconclusive = small, poorly fitted or top-dose-only effect; inactive = no such curve, though single readings can be large or run the other way; tested in HEK293T cells; further: on the % scale 0 is the no-effect control and ±100 the full control effect; nearly all actives have a fitted effect of over 45% in size; luciferase light after 4 h
# NS1 function inh = blocks influenza NS1 protein function. Potency, µM (top dose mostly 46.1 µM), for the others: at the highest dose activity, positive = more growth. AID 2326. S. cerevisiae slowed by influenza A NS1, growth recovery by OD600. 0.4% of 270,000 active; further: actives are rising curves; nearly all actives have a fitted effect of over 50% in size
#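 Growth recovery, yeast-based: influenza A NS1 expressed in S. cerevisiae causes slow growth, and suppressors are detected by OD600. The parent strain without NS1 is used as positive control.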
# Cruzain inh Det = cruzain (T. cruzi) inhibition with detergent; purified cruzain, Z-FR-AMC fluorescence, 0.01% Triton; Potency, µM, without a hit: max response, negative = inhibition, actives largely listed as inhibitors; 0.43% of 200,000 active; AID 1478; active means well fitted curve in the direction sought with a large enough effect; inconclusive means small, poorly fitted or top-dose-only effect, or another doubt; inactive means no such curve, though single readings can be large; an effect the other way counts as inactive or inconclusive;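 further: plate controls were neutral wells for no effect and buffer without enzyme for full effect; nearly all actives have a fitted effect of over 40% in size; top concentration of the series not given in the record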
#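 Detergent-containing run (0.01% Triton X-100) in acetate buffer pH 5.5 with 5 mM DTT: enzyme at 1.5 nM final, 15 min compound preincubation at room temperature, then 2 uM Z-FR-AMC substrate. Activity taken as 60 s fluorescence increase at 360/450 nm.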
# Numbers without * were called inactive; ? = inconclusive; / = no result given; & = joins results of further samples; [ ] = another dose, or the depositor's remark. Unless noted, the call rests on the fitted dose curve; in most records, active means well fitted rising curve with a large enough effect; inconclusive means small, poorly fitted or top-dose-only effect; inactive means no such curve, though single readings can be large or run the other way. Potency means the concentration at half of the fitted maximal effect.
structure | RE007 growth inh | MARV entry inh | 2A StopGo | Cruzain noTriton | Cruzain inh Det | SARS PLpro yeast | NS1 function inh | Lassa entry inh
COc1ccccc1NS(=O)(=O)c1cc(C(=O)N2CCN(C/C=C/c3ccccc3)CC2)ccc1C | 3% | ? | -8% | / | / | ? | 11% | ?
COc1ccc(C)cc1S(=O)(=O)N(C)CC(=O)NC1CCCCC1 | 16% | 3%[46.1 µM] | 0% | 4% | 2.5% | -9% | -12% | -8%
COc1ccc2nc(NC(=O)C3CCCN(S(=O)(=O)c4c(C)noc4C)C3)sc2c1 (configuration not stated) | 11% | -5% | -27% | 2% | -5.5% | -3% | -31% | /
COc1cc(/C=N/N=C(/N)c2nonc2N)cc(Br)c1OCc1cccc(C)c1 | -5% | ? | ? | -12% | 3.6% | -4% | 1% | -2%
CCn1cc([N+](=O)[O-])c(C(=O)Nc2cc(C)on2)n1 | 8% | 5%[46.1 µM] | 1% | 0% | 1.8% | / | 10% | 18%
COc1ccc(CNC(=O)c2ccc(CNS(=O)(=O)c3ccc(OC)cc3)cc2)cc1 | / | 5%[46.1 µM] | 23% | -4% | -1.1% | / | / | -7%[46.1 µM]
COc1ccc(S(=O)(=O)Nc2cc(C)ccc2OC)cc1C | 6% | ? | 28% | -13% | -5.8% | -7% | -27% | -20%
CC(C)c1ccc(/C=C2\SC(=S)N(CC(=O)NCCCN3CCOCC3)C2=O)cc1 | 1% | -1%[46.1 µM] | 36%[activator] | / | / | 1% | 7% | /
CSc1nc2nc(-c3cccs3)cc(C(F)(F)F)c2c(=O)[nH]1 | -2% | ? | -11% | / | / | 21% | -2% | -1%[46.1 µM]
Cn1c(Oc2ccc3c(c2)OCO3)nc2c1c(=O)n(Cc1ccccc1)c(=O)n2C | 9% | 1% | ? | 5% | -2.9% | 3% | 1% | 9%
O=C(c1cccc(C(=O)N2CCN(c3ccccc3F)CC2)c1)N1CCN(c2ccccc2F)CC1 | -3% | 4%&4% | ? | ? | 3.7% | 3% | -12% | 3%
CCN(CC)CCNCC1C(=O)O[C@@H]2C[C@@]3(C)CCC[C@H](C)C3=C[C@H]12 (some centres not stated) | -29% | -6% | ? | / | / | 1% | 8% | ?
O=C1NC(=O)N(CCNc2ncc(C(F)(F)F)cc2Cl)C(=O)C1Cc1ccc(Cl)cc1 (configuration not stated) | 5% | ? | -10% | / | / | -1% | / | 6%
Cc1oc(CC(C)C)c(CN)c1C(=O)O | -3% | -2% | 10% | -1% | 1.7% | 3% | 3% | 1%
Cc1ccccc1NC(=O)CSC1=Nc2ccccc2C2=NC(CCC(=O)NCc3ccccc3)C(=O)N12 (configuration not stated) | / | -18%[46.1 µM] | 6% | 0% | -1.0% | / | / | -4%[46.1 µM]
COc1ccc(CCNC(=O)CC2Nc3ccccc3NC2=O)cc1OC (configuration not stated) | 34% | -2% | -18% | -7% | -19% | 5% | 9% | 0%
S=C(NCCc1ccccc1)N1CCN(C2CCCCC2)CC1 | 3% | -5%[46.1 µM] | 11% | / | / | -2% | / | 3%[46.1 µM]
COc1ccc(C(=O)N[C@H](C(=O)Nc2ccc(OC)nc2)C(C)C)cc1 | 24% | 18% | 9% | 16% | -6.6% | 7% | -1% | ?
CCCn1c2ccccc2c2cnn(CC(=O)O)c(=O)c21 | -12% | 0% | -17% | / | / | -2% | 4% | 7%
CC(Sc1nnc(-c2ccccc2Br)n1-c1cccc(C(F)(F)F)c1)C(N)=O (configuration not stated) | -6% | -7% | -13% | 15% | 0.6% | -3% | 1% | -18%
COC(=O)[C@H](C)NC(=O)N1CCC(Cc2ccccc2)CC1 | 27% | / | -16% | / | / | 8% | -4% | /
Cc1cc2oc(C(=O)Nc3ccc(S(=O)(=O)Nc4onc(C)c4C)cc3)cc(=O)c2cc1Cl | -6% | / | 1% | / | / | 0% | -4% | /
CC(Sc1nnc(N)s1)C(=O)Nc1nccs1 (configuration not stated) | 1% | 1%[46.1 µM] | -14% | / | / | 0% | -9% | ?
COc1ccc(-n2nnnc2SCC(=O)Nc2ccc3c(c2)OCCO3)c(OC)c1 | -4% | -4% | -25% | -21% | -2.2% | -3% | -18% | ?
CCCCC1=NN(C(=O)c2ccncc2)C(O)(C(F)(F)F)C1 (configuration not stated) | 3% | ? | -20% | / | / | 0% | 4% | 2%
Cc1cccc(OCCn2nc(C(=O)O)c3ccccc3c2=O)c1 | 2% | 15%[46.1 µM] | -28% | -11% | -0.1% | -12% | -42% | 7%
O=C(COC(=O)c1cccs1)Nc1nnc(-c2ccccc2)o1 | 0% | -5% | 13% | / | / | / | / | -5%
C=CCn1c(=S)[nH]c2cc(C(=O)Nc3ccc(OC)c(OC)c3)ccc2c1=O | -14% | -14%[46.1 µM] | -21% | / | / | 7% | 18% | 3%[46.1 µM]
CCOc1ccccc1C(=O)NCC(=O)Nc1ncccc1C | 20% | -12% | -27% | / | / | / | / | 19%
OC(Cc1ccncc1)c1ccccc1Cl (configuration not stated) | 10% | ? | -4% | / | / | / | / | 17%[46.1 µM]
COc1cc(/C=N/NC(=O)c2cc(O)cc(O)c2)ccc1OC(=O)c1ccccc1 | 8% | 7% | 33%[activator] | / | / | 7% | 11% | 2%
Cc1ccc(NS(=O)(=O)c2c(C(=O)N3CCCCCC3)c(C)n(C)c2C)cc1C | -4% | / | 41%[activator] | / | / | 3% | -7% | /
Cn1c(=O)c2[nH]cnc2n(-c2ccccc2)c1=O | -14% | 14% | -6% | -8% | 4.7% | / | -2% | 5%
Cc1ccc(C(=O)O)cc1S(=O)(=O)N1CCCC1 | 16% | 9% | -7% | 8% | 0.6% | 10% | 6% | 0%
O=C(Cc1ccccc1)N1CCC(C(=O)N2CCN(c3ccc(F)cc3)CC2)CC1 | -7% | 29% | -13% | 5% | 6.2% | 0% | -4% | -3%
Cc1ccc(NC(=S)N(CCCN2CCOCC2)Cc2cccs2)c(C)c1 | 5% | ? | 18% | -7% | 2.0% | 8% | -5% | 14%
CCn1c(Cc2ccccc2)nnc1SC(C)C(=O)NC1CC1 (configuration not stated) | 6% | 13% | -14% | / | / | 1% | / | 7%
CCOC(=O)c1c(C)n(-c2ccccc2)c2ccc(OC(=O)c3ccc(OCC)c(OCC)c3)cc12 | / | / | 0% | -6% | -0.3% | / | / | ?
Cc1ccc(NC(=O)c2cc(=O)[nH]c3ccccc23)cc1C | -18% | ? | 10% | / | / | 3% | 5% | -3%
O=C(O)c1ncsc1-c1ccccc1 | 6% | / | -8% | / | / | -1% | 4% | /
COc1ccc(Cc2nc3ccc(C(=O)NCC4COCCO4)cc3o2)cc1 (configuration not stated) | -6% | 0% | 2% | / | / | 8% | -5% | -19%
Nc1c(C(=O)NCc2ccco2)c2nc3ccccc3nc2n1CCc1ccccc1 | -8% | -37% | -5% | 30% | -11% | -16% | 6% | ?
Cc1nnc(N2CCC(C(=O)NCc3ccc(F)cc3)CC2)c2nn(-c3ccc(Cl)cc3)c(C)c12 | / | / | -28% | 0% | -11% | / | / | -9%[46.1 µM]
COC(=O)c1sc(N)c(C(=O)OC)c1CSc1nnnn1C | 10% | 20% | 0% | -1% | 4.6% | -1% | 3% | 8%
Cc1cc(=O)oc2cc(NC(=O)CCC(=O)O)ccc12 | 2% | 26% | 20% | -11% | -14% | -12% | 4% | 20%
CC1(C(O)(C#CCN2CCCCC2)c2ccccc2)CCCC1 (configuration not stated) | -13% | ? | -25% | / | / | -2% | / | 16%[46.1 µM]
CCCCC(CC)CNC(=O)c1ccc(Cn2c(=O)[nH]c3cc(OC)c(OC)cc3c2=O)cc1 (configuration not stated) | / | 15%[46.1 µM] | -4% | -4% | 0.0% | / | / | ?
COc1ccccc1CNC(=O)C1(c2cccs2)CCOCC1 | / | / | -16% | -7% | -1.0% | / | / | 2%[46.1 µM]
Cc1cccc(C)c1NC(=O)C1NC(=O)CC1c1ccccc1 (configuration not stated) | 5% | / | -6% | -1% | 2.5% | 0% | 6% | /
Cc1nc(N2CCOCC2)c2c(C(=O)NCc3cccc(Cl)c3)c(C)oc2n1 | / | / | -22% | -13% | -2.0% | / | / | 1%[46.1 µM]
CCN(CC)S(=O)(=O)c1cc(C)ccc1SC | 26% | 15% | 3% | -13% | -0.1% | -9% | 6% | 0%
CC(C)(C)c1nn2cnnc2n(/N=C/c2ccc(O)cc2)c1=O | 19% | ? | -10% | 10% | -5.9% | -16% | -1% | 3%
CC1CCN(C(=O)c2ccc(NS(=O)(=O)c3cccs3)cc2)CC1 | -9% | ? | 0% | / | / | -1% | 3% | -2%[46.1 µM]
Cc1ccc(OP(=O)(O)Oc2ccc(C)cc2)cc1 | -11% | 16% | 9% | / | / | / | / | -2%
Cc1cc(N(CN2CCCC2=O)C(=O)c2ccc(OC(C)C)cc2)no1 | 3% | ? | -21% | / | / | -9% | / | ?
C=CCn1c(SCC(=O)NC2CC2)nnc1-c1cccc(OC)c1 | -5% | 0%[46.1 µM] | -19% | / | / | / | -5% | 7%[46.1 µM]
CCC(C)(C)NC(=O)C(c1ccc(OC)cc1)N(CCOC)C(=O)CCC(=O)Nc1nccs1 (configuration not stated) | -9% | -2%[46.1 µM] | 2% | / | / | 1% | 2% | -20%
CC(C)CC(NC(=O)C(COCc1ccccc1)NC(=O)OC(C)(C)C)C(=O)NN (configuration not stated) | -7% | -19% | -2% | / | / | 0% | / | 0%
COCCN(C(=O)CNC(=O)c1ccco1)C(C(=O)NC1CCCCC1)c1cccc(OC)c1 (configuration not stated) | 10% | 0% | 6% | -1% | 1.9% | 2% | -10% | -5%
Cc1cccc(-c2nc(CN3CCN(C(=O)C4CCCO4)CC3)cs2)c1 (configuration not stated) | 2% | -36% | -26% | / | / | 2% | -1% | ?
CCCc1ccc(C(=O)NC(=O)c2ccccc2O)cc1 | -19% | 8.9µM* | ? | / | / | -7% | -83% | 10µM*
O=C(NCc1cccc(C(F)(F)F)c1)C1CC(c2cccc(F)c2)=NO1 (configuration not stated) | -4% | / | -21% | / | / | -3% | 4% | /
O=S(=O)(Nc1ccccn1)c1cccs1 | 7% | 0%[46.1 µM] | 39%[activator] | / | / | 0% | -4% | 13%
